# BJeLR viability: BJeLR cell viability loss; inhibition, % (concentration not given with the values); 300,000 compounds, 0.17% hits; BJeLR (HRASV12) viability, CellTiter-Glo ATP luminescence, 48 h; reference of the scale not given here;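 active = replicate mean above 50%; inconclusive = above 50% but judged a plate artefact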;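 also: 50 nL library stock added to about 25 µL; numbers are from one replicate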
# Sa ugtP lethal: compounds lethal to S. aureus RN4220 ugtP deletion mutant. OD600 growth, 16 h; some inactives read as strong as hits. growth inhibition, % (no concentration beside the values). 330,000 compounds, 0.54% hits;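 active = z-score under -3 and OD600 up to 0.15 on both plates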;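 also: plate controls were untreated wells for no effect and antibiotic for full effect; wells of about 80 µL received 100 nL stock; the first replicate is given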
# PrP UTR inh: suppresses PrP 5' UTR mRNA reporter expression; cell-based PrP 5' UTR mRNA reporter, plate reader; inhibition, % (concentration not given with the values); 340,000 compounds, 0.35% hits;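 active = every replicate at 50% or more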;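 also: 0 = median of the neutral control wells; tested in H4 reporter cells; numbers are from one replicate; inactives centre near -14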
# Bead autofluor: counter-screen for toxin protease inhibitors: compound fluorescence | AID 624483 | 360,000 compounds, 3.1% hits | fluorescence intensity (concentration not given with the values) | compound autofluorescence counterscreen, microsphere flow cytometry; active compounds read high;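 active = at least 3 SD above the mean of all compounds, about 16000 in these data; inconclusive = too few beads counted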;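 also: 100 nL of 1 mM stock went into each well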
# Sa RN4220 lethal: kills Staphylococcus aureus RN4220; S. aureus RN4220 growth, OD600, 16 h; inhibition, % (concentration not given with the values); 330,000 compounds, 0.33% hits;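 active = z-score of -3 or lower and OD600 up to 0.18 on both plates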;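 also: plate controls were untreated cells for no effect and reference antibiotic for full effect; stock transfer was 100 nL into about 80 µL; one replicate is shown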
# Mtb hypoxia rep: reduces hypoxia-regulated biosensor signal in M. tuberculosis | M. tuberculosis hypoxia-regulated fluorescent reporter, fluorescence | fluorescence inhibition, % (test concentration not listed) | AID 1159583 | 300,000 compounds, 0.1% hits;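 active = 35 to 45% if threefold the growth effect, above 45% if 1.5-fold the growth effect; inactive = the rest, general growth blockers included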;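 also: wells of about 50 µL received 100 nL stock; 0% = vehicle wells and 100% = reference inhibitor wells; whole bacteria with a GFP reporter of the hypoxia response; strong numbers were not always called active; many hits fall short of the cut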
# Mtb hypoxia rep growth: further read-out of Mtb hypoxia rep, marked with its call; growth inhibition, %; measured here: M. tuberculosis growth (absorbance);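 0% = vehicle and 100% = reference antibiotic; read after six days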
# * marks the source's active call; other numbers are inactive results; ? = inconclusive; / = no result given; & = joins results of further samples.
Structure	Sa RN4220 lethal	Bead autofluor	Sa ugtP lethal	BJeLR viability	Mtb hypoxia rep growth	PrP UTR inh	Mtb hypoxia rep
COc1ccc(C(=O)OCc2csc(C)n2)c(O)c1	12.3	3084	10.1	1.6	9.4	-77.6	-5.7
CCOC(=O)N1CCN(C(=O)C(CC(C)C)NC(=O)C2CCCCC2)CC1 (stereo unspecified)	2.7	3847	-2.1	-9.1	9.2	-32.6	11.4
CCOC(=O)CNC(=O)c1ccc(SCC)cc1	0.6	5946	0.7	-7.3	-0.3	-18.0	1.3
O=C(NC(=S)N1CCN(C/C=C/c2ccccc2)CC1)c1ccc(Cl)nc1	-4.0	/	2.2	4.7	3.5	8.1	-3.7
Cc1cc(C(=O)OCC(=O)Nc2cc(S(=O)(=O)N(C)C)ccc2C)c(C)o1	4.3	/	-6.1	-1.9	-0.2	/	-4.8
O=C(O)/C=C/c1cn(-c2ncc(C(F)(F)F)cc2Cl)c2ccccc12	-2.0	3325	-3.0	0.8	2.3	-3.0	11.7
CCN(CC)Cc1c(C(=O)NN=Cc2cccc(OCc3cccc(Cl)c3)c2)nnn1-c1nonc1N	1.6	/	4.2	/	-7.4	/	2.9
Cn1c(=O)c2c(ncn2CC(=O)N2CCN(c3cccc(Cl)c3)CC2)n(C)c1=O	-0.3	3058	-2.7	-2.0	/	-24.0	/
O=C(COc1ccccc1)Nc1cccc2nsnc12	9.1	4447	-0.1	-1.0	8.0	-19.3	11.5
COC(=O)CSc1nc(N2CCOCC2)c2c(c1C#N)CC(C)(C)OC2	3.3	3585	6.3	-2.5	15.2	-13.4	2.3
COc1ccc(C(=O)Oc2ccc3oc(=O)sc3c2)cc1	-1.0	9869	-9.1	4.6	4.8	-34.7	2.7
COc1ccc(S(=O)(=O)Nc2cc3c(cc2C(C)=O)OCO3)cc1	3.0	4157	5.3	-11.1	8.1	-7.5	16.2
CCOc1cc(/C=C/C(=O)OCC(=O)NCc2ccco2)cc(Cl)c1OC	6.3	4193	4.7	6.4	-0.5	-4.6	2.8
O=C(O)CSc1nccc2ccccc12	6.2	5137	-8.4	1.1	-1.8	-7.2	10.3
COc1cccc(C=NNC(=O)c2cccc(N3CCCC3=O)c2)c1	-3.3	/	0.2	/	11.1	/	-1.8
CS(=O)(=O)c1ccc(C(=O)NC(Cc2ccccc2)c2ccccc2)cc1 (stereo unspecified)	-8.0	3703	2.3	-6.4	-1.3	-19.0	-11.9
O=C(O)c1ccc2c(c1)C(=O)/C(=C\c1ccco1)C2=O	1.4	2185	5.1	2.3	-4.6	-7.5	-11.1
O=C(c1ccccc1)c1cc2cc(Cl)ccc2[nH]1	2.0	3726	-6.0	4.5	2.3	-35.0	13.4
O=C(/C=C/c1ccc(Br)cc1)NC(=O)c1ccccc1O	11.2	2211	7.1	3.2	5.6	-62.0	1.0
Cn1cc(C(=O)Nc2ccc(F)c(F)c2)cn1	1.0	4836	0.8	-0.5	/	-18.0	/
CN(C)c1cccc(C(=O)OCC(=O)N2CCc3ccccc3C2)c1	1.0	5735	10.0	2.6	4.2	-8.5	9.0
C/C(=C1/SC(N2CC(C)OC(C)C2)=NC1=O)c1ccccc1 (stereo unspecified)	9.8	19965*	-2.1	-8.6	9.9	-7.2	5.4
O=C(COc1ccc([N+](=O)[O-])cc1)Nc1nc(-c2ccccn2)cs1	11.6	5552	-7.9	2.8	5.9	-4.8	18.5
O=C(NN=Cc1cc(Br)c(O)c(Br)c1)c1ccccc1NS(=O)(=O)c1cccs1	32.4	4066	13.5	/	9.4	-23.3	7.9
COc1cccc(/C=N/NC(=O)c2c(C)nc3ccc(Cl)cn23)c1O	/	3490	/	23.8	/	37.9	/
O=C(O)c1cc2c(ccc3ccccc32)o1	4.8	9103	-4.7	-0.8	7.0	-2.4	3.9
CC(Sc1ncnc2c1cnn2-c1ccccc1)C(=O)NCC1CCCO1 (stereo unspecified)	3.1	5328	-0.9	1.4	-1.5	-10.4	-3.1
Cc1cccc(C)c1OC(=O)CSc1nnc(-c2ccccc2)o1	8.1	3155	5.2	-11.8	/	-3.9	/
CC1(C)CC2(CCO1)OC(=O)CC2C(=O)Nc1ccc(Br)cc1 (stereo unspecified)	-0.4	5368	-3.8	4.8	7.3	-11.4	13.4
NN=CC(=NNc1ccc(Cl)cc1)C(=O)c1ccncc1	1.7	/	1.3	/	2.9	/	5.5

# For reference, part of the list above.
Structure	Sa RN4220 lethal	Bead autofluor	Sa ugtP lethal	BJeLR viability	Mtb hypoxia rep growth	PrP UTR inh	Mtb hypoxia rep
CC1(C)CC2(CCO1)OC(=O)CC2C(=O)Nc1ccc(Br)cc1 (stereo unspecified)	-0.4	5368	-3.8	4.8	7.3	-11.4	13.4
NN=CC(=NNc1ccc(Cl)cc1)C(=O)c1ccncc1	1.7	/	1.3	/	2.9	/	5.5

# The list continues:
Structure	Sa RN4220 lethal	Bead autofluor	Sa ugtP lethal	BJeLR viability	Mtb hypoxia rep growth	PrP UTR inh	Mtb hypoxia rep
COc1cnc(-c2ccccn2)nc1Sc1ccccc1Cl	8.1	16715*	8.3	6.2	21.3	-13.8	3.8
CCOC(=O)c1c(NC(=O)C[n+]2ccc(Cc3ccccc3)cc2)sc(C)c1C	16.6	4149	-6.0	8.4	/	-71.0	/
O=C(c1ccc2ccccc2c1)c1c[nH]cc1-c1ccccc1	1.0	3646	3.1	13.0	1.1	-14.9	-1.3
CC1CCCCN1C(=O)CSc1nnc(-c2ccco2)n1C (stereo unspecified)	4.2	3497	-4.1	-4.8	-0.8	-19.0	11.1
Brc1ccc(C=Nn2cnnc2)s1	4.2	/	11.7	/	-2.2	/	8.0
CC(=O)N1CC=C2C(C#N)=C(N)C(C#N)(C#N)C(C)C2C1 (stereo unspecified)	4.2	2940	-1.7	3.6	5.5	-13.4	8.9
CCOC(=O)C1(Cc2ccc(Cl)cc2)CCN(CCCn2cccn2)CC1	3.7	3432	-0.1	/	0.5	-48.7	12.5
CC(C)C(=O)Nc1cccc(-c2cn3ccsc3n2)c1	-10.3	2307	-2.6	-2.7	4.7	-26.7	12.6
CCCN1CCN(C(=O)CCCNC(=O)Cn2cnc3sc(C)c(C)c3c2=O)CC1	-0.3	3032	4.3	0.7	/	-24.8	/
OC1CCCN(Cc2c3ccccc3cc3ccccc23)C1 (stereo unspecified)	1.6	5950	17.1	4.4	6.0	-18.7	11.3
Cc1csc(SC(C)C(=O)NCC2CCCCC2)n1 (stereo unspecified)	1.5	3926	-0.8	9.6	15.3	-23.4	11.4
CN(C)c1ccc(NC(=O)CN2CCN(CC(=O)Nc3ccc(F)cc3)CC2)cc1	2.5	2146	-4.6	6.7	/	-17.6	/
O=C(CSc1n[nH]c(-c2cccnc2)n1)Nc1ccnc2ccccc12	-2.1	3797	-3.7	0.3	6.5	-6.2	-1.5
CCOC(=O)CSc1nnc(C2CCCCC2)n1C	1.8	4288	-2.7	3.0	0.1	-21.1	6.0
O=C(NC1=NCCS1)c1cc(-c2cccc(Br)c2)nc2ccccc12	-8.9	2511	4.1	-6.4	3.0	-1.1	8.4
O=C1C(Cc2ccccc2)Nc2ncnc(N3CCOCC3)c2N1Cc1ccc(Cl)cc1 (stereo unspecified)	-16.4	3888&5695	-10.6	-12.1	1.9	-1.0	5.3
O=C(CCNC(=O)c1ccc([N+](=O)[O-])cc1)NCCCN1CCCC1=O	-0.7	?	2.6	-10.6	-1.0	6.9	5.3
Cc1cccc(NC(=O)CN(C2=NC3CS(=O)(=O)CC3S2)c2ccccc2F)c1 (stereo unspecified)	0.0	6401	4.3	-3.8	-3.2	-16.9	-9.4
O=C(c1cnn2ccccc12)N1CCc2ccccc21	5.1	5130	11.4	5.8	4.7	-78.1	11.4
CCCN1CCN(CCCNC(=O)c2ccc3c(Cl)c4c(nc3c2)CCCC4)CC1	-1.6	5977	9.3	2.4	0.6	-12.9	11.4
COc1ccc(NC(=O)CCNS(=O)(=O)c2cccc3nonc23)c(OC)c1	2.7	4875	4.7	-15.2	-5.3	-15.6	-5.2
O=C(O)c1cccc2c1C(=O)N(C1CCCCC1)C2	-5.7	6205	-5.3	8.4	9.9	-3.2	8.6
O=C(NCCN1CCN(c2cccc(Cl)c2)CC1)c1ccc(CSc2nc3ccncc3[nH]2)cc1	1.9	2584	7.2	9.0	-4.5	-15.1	5.1
CCOc1ccc(C=NNC(=S)NC2CC3C=CC2C3)cc1 (stereo unspecified)	11.8	/	27.8	/	0.2	/	0.4
CC(C)(C)C1CCc2onc(C(=O)Nc3ccc(F)cc3F)c2C1 (stereo unspecified)	3.0	10906	-20.4	-2.5	7.4	-12.8	-9.8
COC(=O)CN(c1ccc(C)c(Cl)c1)S(C)(=O)=O	4.9	4039	1.5	-1.2	4.0	-4.8	5.4
CC(C(=O)NCc1cccc(Cl)c1)N1C(=O)c2ccccc2C1=O (stereo unspecified)	1.1	3709	1.7	-15.8	-14.8	-13.9	-5.4
CCCOc1ccc(C(CC(=O)O)NC(=O)C23CC4CC(CC(C4)C2)C3)cc1 (stereo unspecified)	-5.3	23418*	3.5	2.8	-3.4	-39.7	-6.2
CC(C)(C)c1ccc(C(=O)NNc2cc(Cl)cc(Cl)c2)cc1	-0.4	5594	-5.7	-1.6	-3.1	-3.0	-10.9
Cc1ccc2c(c1)Sc1ccccc1CC2=O	5.0	4900	5.1	-0.3	/	-5.0	/

# Some values from the list.
# Reading for CCCOc1ccc(C(CC(=O)O)NC(=O)C23CC4CC(CC(C4)C2)C3)cc1 (stereo unspecified) under Sa RN4220 lethal: -5.3
# Reading for Cc1cccc(NC(=O)CN(C2=NC3CS(=O)(=O)CC3S2)c2ccccc2F)c1 (stereo unspecified) under BJeLR viability: -3.8
# Reading for O=C(O)c1cccc2c1C(=O)N(C1CCCCC1)C2 under BJeLR viability: 8.4
# Reading for COc1ccc(NC(=O)CCNS(=O)(=O)c2cccc3nonc23)c(OC)c1 under Sa RN4220 lethal: 2.7

# Next structures follow:
Structure	Sa RN4220 lethal	Bead autofluor	Sa ugtP lethal	BJeLR viability	Mtb hypoxia rep growth	PrP UTR inh	Mtb hypoxia rep
CCc1nnc(NC(=O)[C@@H](NC(=O)c2cccc(S(=O)(=O)N3CCOCC3)c2)C(C)C)s1	/	2804	/	-8.3	/	-2.3	/
CCOC(=O)NCc1ccc2c(c1)cc(C)n2C	2.2	13397	3.6	2.9	15.6	-39.5	8.6
O=C1/C(=C/c2ccccn2)SC(=S)N1Cc1ccccc1	-2.6	3665	-4.2	4.0	-1.2	/	-6.8
Cc1cc(C)n(/N=C/c2cccc(O)c2)c(=O)c1C(N)=O	/	3539	/	-0.9	/	-6.9	/
COc1ccc(OC)c(NS(=O)(=O)c2cccs2)c1	8.6	22109*	6.3	0.2	12.3	-12.0	10.9
CC[C@@]12C(=O)N(c3cccc(Br)c3)C(=O)N1C(c1ccc(Br)cc1)C1C(=O)N(C(C)(C)C)C(=O)C12 (stereo partly specified)	-0.2	/	-39.8	/	11.6	/	3.0
CCOc1ccccc1NC(=O)C(NC(=O)C1CCC(C)CC1)C(C)C (stereo unspecified)	0.3	6973	-9.5	12.7	-6.8	-7.8	-3.0
CCOc1ccc(-c2nnn(CC(=O)N3CCCC3)n2)cc1OCC	-2.5	/	4.8	-1.9	/	-14.2	/
C=C(C)CNC(=S)N/N=C(\C)c1ccc(Cl)s1	/	2128	/	1.5	/	-14.0	/
CC(=O)Nc1cccc(OCCCNC(=O)c2ccc(C(C)(C)C)cc2)c1	2.4	3555	9.6	-8.4	4.0	/	1.1
N#Cc1ccccc1-c1ccccc1C(=O)N1CCCCC1	3.1	3519	13.0	5.0	7.5	-31.3	-3.4
COC(=O)C1=C(c2c(C)noc2C)CC2CCC1N2C(=O)NCCCOC(C)C (stereo unspecified)	5.3	/	-13.6	/	11.2	/	-1.7
COc1ccc(-c2cc(C(=O)NCC(c3ccco3)N(C)C)c3ccccc3n2)cc1OC (stereo unspecified)	-1.6	4612	3.4	-7.5	4.4	-17.9	-8.5
COC(=O)[C@]1(Cc2ccccc2)N[C@H](CN(C)S(=O)(=O)c2ccc(F)cc2)[C@@H]2C(=O)N(C)C(=O)[C@@H]21	4.3	3529	0.8	/	-0.3	-19.0	2.1
CC[C@]1(C(=O)OC)[C@H]2C(=O)N(C)C(=O)[C@H]2[C@H]2CN(C)C(=NCc3ccccc3)N21	0.9	3922	6.6	/	0.1	-8.8	0.5
CCNc1nc(N)nc(Oc2ccc(OCc3ccccc3)nn2)n1	-1.0	8311	-0.3	-4.9	2.3	-8.1	-4.0
O=C(NN=C1C2CC3CC(C2)CC1C3)c1cccs1	5.9	5346	2.5	0.3	20.2	-18.7	11.4

# Screening data from PubChem BioAssay.
